Assay outcomes (PubChem)
N370S GC mod = inhibits or activates N370S mutant glucocerebrosidase. P04062. N370S GC spleen homogenate, 4MU-glucoside fluorescence. Potency, µM (highest dose often 59.4 µM), inactives show at the highest dose activity change, negative = inhibition, usual class: inhibitors. 330,000 tested, 0.092% active. AID 2101; active = well fitted inhibition curve with a large enough effect; inconclusive = small, poorly fitted or top-dose-only effect, or effect the other way, or another doubt; inactive = no such curve, though single readings can be large or run the other way;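 note: 0% = full enzyme activity and -100% = no enzyme basal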
* marks the source's active call; other numbers are inactive results; ? = inconclusive. Potency is the fitted concentration of half-maximal effect. An excerpt; most or all hits stand in other tables.

structure | N370S GC mod
CCCCOC(=O)CCCc1ccc([N+](=O)[O-])cc1[N+](=O)[O-] | -12.1%
COC(=O)c1cn(-c2nc(C)c3c(n2)CCC3)nn1 | 4.6%
CCn1nc(C(=O)Nc2ccc3nc(C)sc3c2)c2ccccc2c1=O | 2.9%
O=C(O)c1cccnc1NC1CCCC1 | -1.1%
c1ccc(CCNc2nc3ccccc3n3nnnc23)cc1 | 7.4%
O=C(CCc1ccccc1)NC(NC(=S)Nc1cccc(Cl)c1)C(Cl)(Cl)Cl (stereo not given) | 7.2%
O=C(Cc1c(Cl)cccc1Cl)NCCc1ccc(Cl)cc1 | 1.2%
COc1ccc(/C=C2\SC(=O)N(CCC(=O)NC3CCS(=O)(=O)C3)C2=O)cc1 (stereo not given) | -23.3%
C#CCNC(=O)C1=C[C@H](c2ccccc2)[C@@H](CCCO)[C@H](OCC)O1 | -1.9%
Cc1cccc(NC(=O)c2cccc(S(=O)(=O)N3CCCCC3)c2)c1 | -12.7%
CCOc1ccc(S(=O)(=O)N2CCCC(C(=O)N3CCN(CC)CC3)C2)cc1Cl (stereo not given) | -11.8%
N#C/C(N)=C(/C#N)N=Cc1cccc(Cl)c1 | 0.7%
Cc1cc(O)c(C(=O)Nc2cccc(Cl)c2)c(=O)n1C | -12.3%
Cc1nonc1NC(=O)CSc1nnc(-c2ccoc2C)n1C | -4.1%
C=CCOC(=O)C1=C(C)NC(SCC(=O)Nc2ccccc2)=C(C#N)C1c1ccco1 (stereo not given) | 2.9%
COc1ccc2nc(SCC(=O)NCc3ccc4c(c3)OCO4)[nH]c2c1 | 4.0%
COCCN(C(=O)c1ccc(-c2ccc(Cl)cc2)o1)c1c(N)n(Cc2ccccc2)c(=O)[nH]c1=O | -13.6%
CCN(CCO)c1ncnc2c1sc1nc(CC(C)C)c3c(c12)CC(C)(C)OC3 | 3.0%
C/C(=N\Nc1ccccc1Cl)c1ccc(-n2ccnc2)cc1 | -1.6%
O=c1cc(O)c2c(=O)n(-c3ccccc3)c3ccccc3c2o1 | -3.7%
CCc1c(-c2ccccc2)nc2sc3c(c2c1N)CCCC3 | 5.5%
CS(=O)(=O)N(CC(=O)Nc1cccnc1)c1ccc2c(c1)OCO2 | -2.3%
O=C(c1ccco1)N1CCN(C(c2ccccc2)c2nnnn2C2CCCC2)CC1 (stereo not given) | 9.9%
CN=c1scc(-c2ccc(Cl)cc2)n1C | -11.2%
CCc1nc(SCC(=O)Nc2ccc(F)cc2)c2c(=O)n(C)c(=O)n(C)c2n1 | 6.7%
O=C(CCc1nnc(C2CCCCC2)o1)N1CCN(C2CCCCC2)CC1 | -3.4%
COC(=O)c1ccc(COC(=O)CNS(=O)(=O)c2ccccc2)cc1 | -7.9%
O=C(CCl)NNc1cccc(Cl)n1 | 11.2%
CC1CCN(CCCn2c(=S)[nH]c3c(sc4ccccc43)c2=O)CC1 | -6.6%
NC(=O)c1ccc(NC(=O)COC(=O)CCSc2ccccc2)cc1 | -23.1%
Cc1ccc(C)c(N2CCN(C(=O)C3CCCN(S(=O)(=O)c4c(C)noc4C)C3)CC2)c1 (stereo not given) | -6.0%
COc1cc(-c2nnc(COc3ccc(Cl)cc3C)o2)cc(OC)c1OC | 3.6%
COc1ccccc1C(=O)NCC(=O)OCC(=O)Nc1cccc(S(=O)(=O)N(C)C)c1 | -1.5%
CCOC(=O)CSc1nnc(-c2cccnc2)o1 | 3.9%
Cc1onc(-c2ccccc2Cl)c1C(=O)OCC(=O)Nc1ccc2c(c1)OCO2 | -22.7%
CCN(CC)C(=O)CC1(c2ccccc2OC)CCOC(C(C)C)C1 (stereo not given) | 6.4%
COc1ccc(OC)c(NC(=O)C2CC(=O)N(Cc3ccco3)C2)c1 (stereo not given) | -4.3%
COc1ccc(C(=O)NCc2cccnc2)cc1S(=O)(=O)N1CCOCC1 | -0.7%
CCCCOc1ccc(-c2nc(-c3cccnc3)no2)cc1 | 8.2%
Cc1nn(-c2ccccc2)c2nc3c(cc12)C(=O)CCC3 | -6.5%
Cc1ccc(S(=O)(=O)NC(=O)NCc2ccccn2)cc1 | -14.9%
COc1ccc(CN2C(=O)c3ccccc3C2C(=O)NCCc2ccccc2)c(OC)c1 (stereo not given) | 2.0%
Cc1nc(-c2ccccc2)sc1C(=O)CSc1ccc(F)cc1 | 5.9%
CCOC(=O)C(=CNc1ccccc1C)C(=O)OCC | -8.0%
O=C(c1cc2cc3ccc(Cl)cc3nc2o1)N1CCCCCC1 | -0.2%
O=C(Nc1nc2n(n1)C(c1ccccc1)CC(c1ccc(Cl)cc1)N2)c1ccco1 (stereo not given) | 5.4%
Cc1cc(Cl)ccc1NC(=O)CSc1nnc(-c2ccncc2)n1Cc1ccco1 | -6.2%
C=CC(=O)NCC1OCCc2ccccc21 (stereo not given) | -3.9%
Cc1cnc(C(=O)Nc2ccc(C(C)C)cc2)cn1 | 4.9%
CC(=O)N1CCN(C(=O)c2cc(S(=O)(=O)N(C)Cc3ccccc3)ccc2Cl)CC1 | 0.3%
OCCC1CN(Cc2ccc3c(c2)CCO3)CCN1Cc1ccc(F)cc1 (stereo not given) | 0.6%
N#Cc1cnn(-c2ccc(F)cc2)c1N | 4.1%
CCc1ccccc1NC(=S)N1N=CCC1c1ccccc1 (stereo not given) | 16.2%
N#C/C(=C/c1ccc(C(=O)O)cc1)C(=O)NCc1ccccc1 | 6.1%
Cc1ccc(NC(=O)OCc2cn(-c3ccc(Cl)cc3)nn2)cc1 | -1.7%
CC(C/C=N/NC(=O)COc1cc(Cl)ccc1Cl)c1ccccc1 (stereo not given) | 5.3%
O=C(CCc1ccc(S(=O)(=O)N2CCOCC2)cc1)N/N=C/c1cccc(O)c1 | -5.0%
CCC1=Nc2cc(C(=O)O)ccc2Sc2ccc(Cl)cc21 | -19.3%
N#CCOC(=O)c1c2c(nc3ccccc13)CCC2 | -2.6%
C=CCOc1ccc(CNc2ccc(NC(=O)CCC)cc2)cc1OCC | -17.2%

Next section.
Compound	N370S GC mod
CCOCc1[nH]c(=S)[nH]c(=O)c1Cc1ccc(OCC(C)C)cc1	2.2%
COC(=O)c1cc(C(=O)c2ccccc2)n2c(=O)/c(=C\N(C)C)sc12	-5.1%
C=CC[N+](C)(C)CCCNC(=O)/C=N/O	7.4%
COc1ccc(OC)c(S(=O)(=O)NNC(=S)Nc2ccc3c(c2)OCO3)c1	-4.0%
O=C(/C=C/c1cccc([N+](=O)[O-])c1)NCCN1CCOCC1	2.6%
CCOC(=O)C1(C(F)(F)F)N=C(C(F)(F)F)Nc2ccc(F)cc21 (stereo not given)	-19.3%
CC(C)CN1C(=O)c2ccc(C(=O)Nc3ccccn3)cc2C1=O	-19.3%
O=S(=O)(c1ccc(Cl)cc1)n1nnc2ccccc21	27.7%
CCC(=O)NCCC(c1ccco1)c1ccccc1OC (stereo not given)	5.7%
Cc1ccc(-n2c(CCC(=O)O)ccc2-c2cccs2)cc1	-1.0%
O=S(=O)(NCc1ccccc1)c1ccc2c(c1)OCCO2	3.6%
CCC(C)(C(=O)NC1CCCC1)N(Cc1cccs1)C(=O)c1ccccn1 (stereo not given)	-2.9%
C/C(CC(=O)Nc1ccc(C)c(Cl)c1)=N\NC(=O)c1ccccn1	21.9%
NS(=O)(=O)c1ccc(NC(=O)COc2ncnc3c2cnn3-c2ccccc2)cc1	-28.9%
c1ccc(CCc2nn3c(-c4ccncc4)nnc3s2)cc1	7.6%
COc1ccc(N/C(C)=C2/C(=O)C(=O)N(CCO)C2c2ccc([N+](=O)[O-])cc2)cc1 (stereo not given)	-6.0%
O=C(COC(=O)c1cc(=O)[nH]c2ccccc12)Nc1nc(-c2cccc(Br)c2)cs1	-1.3%
COc1ccc(-n2c(Cc3cccn3C)nnc2SCC(=O)Nc2cc(Cl)ccc2OC)cc1	11.8%
O=[N+]([O-])c1ccc(N2CCN(c3ccc(Cl)nn3)CC2)c(Cl)c1	-23.3%
CCn1c(SCC(=O)Nc2nc(C)c(C(=O)OC)s2)nnc1C(C)C	-0.3%
Cn1c(SCC(=O)n2c3c(c4ccccc42)CCCC3)nnc1-c1ccccc1	13.9%
CCOC(=O)C1=C(C)N(CC)C(=S)NC1c1ccc(Cl)cc1 (stereo not given)	9.7%
CC(=O)N(c1cccc(C)c1)C1SC(=O)N(c2ccccc2)C1=O (stereo not given)	3.7%
CNCC(O)Cn1c(C(F)(F)F)nc2ccccc21 (stereo not given)	5.9%
CCc1cccc(C)c1NC(=O)C(c1ccc(O)cc1)N1CCC1=O (stereo not given)	-14.3%
COc1ccc2nc(NC(=O)c3cccc(S(=O)(=O)N4CCOCC4)c3)sc2c1	-19.4%
Cc1ccc(S(=O)(=O)N2CCCCC2CCNC(=O)C(=O)NCc2ccccc2C)cc1 (stereo not given)	-3.6%
CC(=O)Nc1ccc(-c2csc(Nc3cc(C)ccn3)n2)cc1	-12.5%
O=C(NCc1nnc(SCC(=O)N2CCOCC2)o1)c1ccccc1F	-8.3%
CCOc1ccc(Br)cc1CSC(=N)N	-10.0%
COc1ccc(NC(=O)CSc2nnc(COc3ccccc3)n2Cc2ccco2)cc1OC	-2.1%
O=C(CN(C1CCCCC1)S(=O)(=O)c1ccc(Cl)cc1)NCCCO	-14.3%
O=C(Nc1ccccc1F)c1ccc(-c2cccc([N+](=O)[O-])c2)o1	-5.6%
Cc1cccc(NC(=O)NC(=O)c2ccccc2)n1	23.9%
NC(=O)c1nsc(C(=O)N(c2ccccc2)C(C(=O)NCC2CCCO2)c2ccc3ncccc3c2)c1N (stereo not given)	?
CCCSc1nc2c(=O)[nH][nH]c(=O)c2n1Cc1ccccc1	-8.3%
Cn1c(=O)c2ncn(CC(=O)Nc3nc(-c4ccc(Cl)cc4)cs3)c2n(C)c1=O	-1.6%
CCCOc1ccccc1C(=O)N(Cc1cccc(Br)c1)C1CCS(=O)(=O)C1 (stereo not given)	-1.6%
O=[N+]([O-])c1ccc(C[n+]2cccc3c4ccccc4ccc32)cc1	-2.6%
O=C(O)c1ccccc1C(=O)Nc1nccs1	5.0%
O=C(Nc1nccs1)NC(C(F)(F)F)C(F)(F)F	4.4%
COc1ccc(-n2c(-c3ccco3)n[nH]c2=S)cc1	5.0%
O=C(O)c1ccc(NS(=O)(=O)c2ccc3c(c2)C(=O)c2cc(S(=O)(=O)Nc4ccc(C(=O)O)cc4)ccc2-3)cc1	9.3%
c1ccc2c(c1)CNc1ccccc1C2	24.1%
CC(/C=N/NC(=O)Cn1nccc1C)=C\c1ccc(C(C)C)cc1	-23.4%
O=C(CSc1nncn1-c1ccccc1)Nc1ccccc1	-4.1%
O=C(C1CCC(=O)N(C2CCCC2)C1)N1CCN(c2ccc(Cl)cc2)CC1 (stereo not given)	-8.8%
Cc1ccc(NC(=O)/C=C/c2ccc(Cl)cc2)nc1	5.3%
O=C(NNC(=O)C1CC1)c1ccc(-c2ccccc2)cc1	22.5%
COCCn1nnnc1C(C(C)C)N1CCN(C(=O)c2ccco2)CC1 (stereo not given)	-1.5%

Continued:
Compound	N370S GC mod
C=CCN(c1ccccc1C(=O)NCC(=O)O)S(=O)(=O)c1ccccc1C	-1.5%
CCOc1ccccc1CNC(=O)CNC(=O)c1cccs1	-9.4%
COc1ccc(CNC(=O)CN(C(=O)c2csnn2)c2ccc(F)cc2)cc1	-15.3%
CCOC(=O)C1(Cc2cccc(OC)c2)CCN(C2CCOCC2)CC1	5.1%
Nc1nc2c([N+](=O)[O-])cccc2s1	-3.2%
CC(C)n1nc(CC(=O)O)c2ccccc2c1=O	1.1%
O=C(/C=C/c1ccco1)Nc1ccc(F)cc1	-14.2%
O=c1[nH]c(=O)n(Cc2ccccc2)c2nc(-c3cccs3)n(CCO)c12	-26.5%
CCOC(=O)C1CCN(C(=O)c2cc(C(C)(C)C)nn2Cc2ccccc2)CC1	-5.3%
COc1ccc(C(C(=O)OCCN(C)C)c2ccccc2)cc1 (stereo not given)	-22.9%
O=c1cc(-c2ccccc2)[nH]n1-c1nc2ccccc2s1	-10.2%
CCN1C(=O)C(CC(=O)Nc2ccccc2)N(Cc2ccccn2)C1=S (stereo not given)	6.8%
CCC(=O)NCc1cc(-c2nn(C)c(=O)c3ccccc23)ccc1C	-23.5%
O=C(Cc1ccc(Cl)cc1)Nc1ccc(NC(=O)c2ccccc2)cc1	6.4%
CSc1ccccc1OCc1cc(C(=O)N(C)CC2COCCO2)no1 (stereo not given)	8.7%
CSc1ccc(CN2C(=O)NC3(CCCCCC3)C2=O)cc1	-0.9%
Cc1ccc(S(=O)(=O)N2CCN(C(=O)c3ccc(N4CCCC4)c([N+](=O)[O-])c3)CC2)cc1	-4.1%
Cc1ccc2c(CC(=O)N3CCN(S(=O)(=O)c4cccs4)CC3)coc2c1	10.4%
O=C(c1nc2ccc(Cl)cn2c1CN1CCC(O)CC1)N1CCc2ccccc2C1	-4.4%
NC1=NC(=O)C(Cc2cccc(Cl)c2)S1 (stereo not given)	-5.7%
Cn1c(=O)c2c(SCC(=O)c3ccccc3)nc(C3CC3)nc2n(C)c1=O	1.1%
NC(=O)CC(NC(=O)c1ccccc1)c1ccc(NC2CCCCC2)c([N+](=O)[O-])c1 (stereo not given)	14.3%
